MLL AF4-AF9 inh = MLL-AF4/AF9 protein interaction inhibition | P42568 | AlphaScreen, biotin-AF4 peptide binding to FLAG-AF9 | inhibition, % at 10 µM | 0.47% of 350,000 active | AID 651704;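 active = every replicate reaching a set inhibition limit, whatever the replicate mean, cut at about 25% in these data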;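 also: 0% = plate neutral control median and 100% = total signal loss; the record names both 10 and 1 µM as test concentration; the first replicate is given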
Target sequence (P42568 whole entry, looked up): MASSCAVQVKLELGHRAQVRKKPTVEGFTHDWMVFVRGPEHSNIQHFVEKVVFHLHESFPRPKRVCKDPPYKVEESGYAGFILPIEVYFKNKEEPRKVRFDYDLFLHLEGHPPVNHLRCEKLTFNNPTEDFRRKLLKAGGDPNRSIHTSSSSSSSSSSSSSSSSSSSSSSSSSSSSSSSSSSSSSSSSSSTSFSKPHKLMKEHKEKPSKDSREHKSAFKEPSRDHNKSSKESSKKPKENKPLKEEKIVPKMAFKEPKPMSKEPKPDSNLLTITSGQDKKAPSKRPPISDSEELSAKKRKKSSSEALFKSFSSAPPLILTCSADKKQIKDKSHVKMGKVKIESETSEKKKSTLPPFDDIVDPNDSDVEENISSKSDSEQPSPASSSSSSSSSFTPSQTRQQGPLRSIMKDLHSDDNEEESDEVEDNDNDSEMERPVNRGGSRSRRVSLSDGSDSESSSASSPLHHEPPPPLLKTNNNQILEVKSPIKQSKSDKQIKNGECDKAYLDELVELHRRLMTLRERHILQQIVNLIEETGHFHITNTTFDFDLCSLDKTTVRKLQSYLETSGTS
FGF22 binding = shifts melting point of recombinant human FGF22; recombinant FGF22 thermal shift, SYPRO orange fluorescence; percent of sucrose octasulfate shift, DMSO zero; calls only at 9.99 µM; 1.5% of 340,000 active; AID 651658;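 active = melting point raised past a set limit in the mean and every replicate; three in four hits are not shown here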
Target sequence (Q9HCT0 whole entry, looked up): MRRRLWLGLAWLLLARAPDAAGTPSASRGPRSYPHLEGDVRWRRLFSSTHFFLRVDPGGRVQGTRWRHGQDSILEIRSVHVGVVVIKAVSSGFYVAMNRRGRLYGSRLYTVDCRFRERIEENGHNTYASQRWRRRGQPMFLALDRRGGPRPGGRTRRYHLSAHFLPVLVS
Ecoli rRNA inh = inhibits bacterial ribosomal RNA function over humanized ribosomes | E. coli WT GFP vs humanized-ribosome RFP mutants, fluorescence, 24 h; active compounds read low; DMSO median 0, no signal -100 | GFP signal change (wild-type ribosome), % (no concentration beside the values) | 1.6% of 350,000 active | AID 720706;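 active = significant combined selectivity score with lowered wild-type GFP, culture density cut under 30%, mutant RFP and density less affected; inactive = any of these conditions unmet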; also: one replicate is shown; some compounds called inactive have numbers as strong as hits
Ecoli rRNA inh OD600 = also measured in Ecoli rRNA inh; calls as there; OD600 change, %; measured here: OD600 growth;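 optical density of the mix in the first replicate; 0 = DMSO median and -100 = no signal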
Ecoli rRNA inh RFP = recorded beside Ecoli rRNA inh, whose call it bears; RFP signal change, %; measured here: RFP humanized mutant strains;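 first replicate; 0 = DMSO median and -100 = no signal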
* = called active by the depositor; i = inactive; + = active, no number; & = joins results of further samples.

molecule | MLL AF4-AF9 inh | FGF22 binding | Ecoli rRNA inh | Ecoli rRNA inh OD600 | Ecoli rRNA inh RFP
C[C@@H]1CN([C@@H](C)CO)C(=O)c2cc(NC(=O)C3CCCCC3)ccc2O[C@@H](C)CCCCO[C@@H]1CN(C)S(=O)(=O)c1cn(C)cn1 | 0.6 | i | -2 | 4 | 0.8
C/C=C/c1cnc2c(c1)C(=O)N([C@@H](C)CO)C[C@H](C)[C@H](CN(C)C(=O)C1CCOCC1)O2 | -4.2 | i | 6 | 14 | -2.2
O=C(C[C@H]1CC[C@@H]2[C@H](COC[C@H](O)CN2Cc2cocn2)O1)N[C@@H]1CCN(Cc2ccccc2)C1 | 5.2 | i | 5 | 6 | 0.2
COc1ccc(NC(=O)C2(C)Cc3c(-c4ccc(C(N)=O)cc4)ccnc3O2)cc1 (stereo not given) | 0.8 | i | 2 | 8 | 0.5
CCCN1C(=O)c2[nH]nc(-c3ccccc3)c2C1c1ccc(Br)cc1 (stereo not given) | 2.3 | i | -49 | -75 | -11
COc1ccc(S(=O)(=O)N(C)C[C@@H]2Oc3ccc(NC(=O)Cc4cn(C)c5ccccc45)cc3C(=O)N([C@H](C)CO)C[C@H]2C)cc1 | 1.2 | i | 1 | -1 | -3.5
C[C@@H]1CN([C@@H](C)CO)C(=O)c2cc(NC(=O)Nc3ccc(F)cc3)ccc2O[C@@H](C)CCCCO[C@H]1CN(C)C(=O)C1CCCCC1 | -1.0 | i | 1 | 4 | 0.9
CN(C)C(=O)c1cccc(-c2cccc(-c3nc(C(=O)NCc4ccccc4)cc4c3[C@@H](CCO)N(S(=O)C(C)(C)C)C4)c2)c1 (stereo not given in full) | 4.1 | i | -5 | -3 | 17
O=C([C@@H]1[C@@H](CO)[C@@H]2Cn3c(cccc3=O)[C@H]1N2C(=O)CC1CC1)N1CCCCC1 | -0.5 | i | 0 | 8 | -0.7
CCC(=O)Nc1ccc2c(c1)C(=O)N(C)C[C@H](OC)[C@@H](C)CN(C(=O)c1ccccc1F)[C@H](C)CO2 | -1.9 | i | -1 | 3 | -0.7
COc1ccc(S(=O)(=O)N(C)C[C@H]2Oc3ccc(NS(=O)(=O)c4cn(C)cn4)cc3CC(=O)N([C@@H](C)CO)C[C@@H]2C)cc1 | -2.8 | i | 3 | 6 | -2.2
CC(=O)N1CCN(S(=O)(=O)c2cccc(C(=O)N3CCN(S(=O)(=O)c4c(C)c(C)cc(C)c4C)CC3)c2)CC1 | 2.0 | i | -1 | -15 | 19
C[C@H]1CN([C@@H](C)CO)C(=O)CCCn2nncc2CO[C@@H]1CN(C)C(=O)Nc1ccc(C(F)(F)F)cc1 | 0.1 | i | -60 | -77 | -18
O=C(C1CCCCC1)N1C[C@@H](O)[C@H](n2cc(C3CC3)nn2)C[C@@H]1c1ccccc1 | -1.0 | i | -1 | -1 | 0.4
CC(C)NC(=O)N(C)C[C@@H]1Oc2c(NC(=O)C3CC3)cccc2C(=O)N([C@H](C)CO)C[C@@H]1C | -1.8 | i | 3 | -1 | -0.9
COc1ccc(CN(C)C[C@@H]2OCCCC[C@@H](C)Oc3ccc(NC(=O)C4CCCCC4)cc3C(=O)N([C@@H](C)CO)C[C@H]2C)cc1 | -8.2 | i | 2 | 0 | -2.3
C[C@H]1CN([C@@H](C)CO)C(=O)Cc2cc(NC(=O)C3CC3)ccc2O[C@@H]1CN(C)Cc1ccc(C(=O)O)cc1 | -2.7 | i | 1 | 2 | -0.8
Cc1cccc(NC(=O)CNC(=O)c2ccc(S(=O)(=O)NCc3ccco3)cc2)c1C | 1.5 | i | 2 | 11 | 2.5
C[C@H]1CN([C@@H](C)CO)C(=O)CCCn2nncc2CO[C@H]1CN(C)C(=O)NC1CCCCC1 | -2.0&-1.0 | i | 7&-2 | 17&2 | -1.4&-5.3
c1ccc2c(c1)ccn1c(Cc3ccsc3)c(C3CCCCC3)nc21 | 1.5 | i | -29 | -42 | -5.4
C#CCNc1cccc2c1S(=O)(=O)N[C@H](C)CO2 | -0.4 | i | 10 | 4 | -1.8
COc1ccc(S(=O)(=O)N(C)C[C@@H]2OCCCC[C@@H](C)Oc3ccc(NC(=O)NC(C)C)cc3C(=O)N([C@@H](C)CO)C[C@@H]2C)cc1 | -4.3 | i | -2 | 1 | -2.6
C[C@H]1CN([C@@H](C)CO)C(=O)c2cccc(NS(=O)(=O)c3cn(C)cn3)c2O[C@@H]1CN(C)Cc1ccncc1 | -1.8 | i | 6 | 8 | -1.0
N#Cc1ccc(C(=O)N2CCCCC2c2cc(C(=O)Nc3ccc4c(c3)OCO4)no2)cc1 (stereo not given) | 0.9 | i | -1 | 5 | -1.5
CCCS(=O)(=O)NC(=O)C1(C)CCN(C(=O)CSc2ccccc2)C1 (stereo not given) | -5.1 | i | 10 | 18 | -0.6
CN1C(=O)c2cc(NC(=O)c3ccc(Cl)cc3)ccc2OC[C@H]2O[C@@H](CC(=O)NCc3cccc(F)c3)CC[C@@H]21 | 0.1 | i | -10 | -24 | -1.1
COc1cc(C(=O)N2CCC(N3CCN(C)CC3)CC2)ccc1Nc1ncc2c(n1)N(C)c1ccccc1C(=O)N2C | 17 | i | -3 | 7 | 0.0
Cc1ccc(OCCN2CCC2(C)C(=O)NCc2ccc(C(F)(F)F)cc2)cc1 (stereo not given) | -0.9 | i | -63 | -80 | -17
C[C@@H]1CCCCO[C@@H](CN(C)C(=O)c2ccccc2)[C@@H](C)CN([C@@H](C)CO)C(=O)c2cc(NS(=O)(=O)c3ccccc3)ccc2O1 | 1.4 | i | -1 | -1 | -2.0
C[C@@H]1CN([C@@H](C)CO)C(=O)c2cc(NS(=O)(=O)c3cccs3)ccc2O[C@@H]1CN(C)CC1CC1 | 1.5 | i | 7 | 18 | -2.0
O=C1NC[C@H](CCCCN2C[C@H](Cc3ccc(O)cc3)N(CCc3ccccc3)C(=O)C2=O)N(Cc2ccccc2)C1=O | 1.9 | i | 12 | -9 | -1.1
O=C1NC(=O)C2(Br)Nc3ccc(Br)cc3C(=O)C2N1 (stereo not given) | -0.9 | + | -2 | 10 | 6.3
C[C@@H]1CCCCO[C@H](CN(C)S(=O)(=O)c2cccs2)[C@@H](C)CN([C@H](C)CO)C(=O)c2cc(NS(=O)(=O)c3ccc(Cl)cc3)ccc2O1 | -2.5 | + | 2 | 4 | -2.2
COc1ccc(S(=O)(=O)N[C@H]2CC[C@@H](CCNC(=O)CN3CCOCC3)O[C@@H]2CO)cc1 | -1.6 | i | 0 | 0 | -0.8
Cc1cccc(S(=O)(=O)N(C)C[C@H]2OCc3cnnn3CCCC(=O)N([C@H](C)CO)C[C@H]2C)c1 | -2.6&-0.5&-1.1 | i | 7&-3 | 15&0 | 6.8&0.0
C[C@H](CO)N1C[C@H](C)[C@H](CN(C)C(=O)Nc2ccccc2)OCc2cnnn2CCCC1=O | -8.1&-1.7 | i | 1&-5 | 3&4 | -1.6&-2.7
COc1ccc(NC(=O)N(C)C[C@H]2OCCCC[C@@H](C)Oc3ccc(NS(=O)(=O)c4cn(C)cn4)cc3C(=O)N([C@@H](C)CO)C[C@H]2C)cc1 | -1.7 | i | 4 | 9 | 0.6
CCN1C[C@@H]2[C@@H]3C(=O)N(C)C(=O)[C@@H]3[C@](Cc3ccccc3)(C1=O)N2C(=O)c1ccc(Br)cc1 | 3.7 | i | -6 | 1 | -16
C[C@@H]1CN([C@H](C)CO)C(=O)Cc2cc(NS(=O)(=O)c3cn(C)cn3)ccc2O[C@H]1CN(C)C(=O)Nc1ccc(C(F)(F)F)cc1 | -1.8 | i | -1 | -3 | -2.0
FC(F)C(F)(F)Oc1cccc(Nc2nccn3c(-c4cc(C(F)(F)F)cc(C(F)(F)F)c4)cnc23)c1 | -3.6 | i | -2 | -2 | -0.3

A draw from above in order of molar mass, rising.
molecule | MLL AF4-AF9 inh | FGF22 binding | Ecoli rRNA inh | Ecoli rRNA inh OD600 | Ecoli rRNA inh RFP
C[C@H](CO)N1C[C@H](C)[C@H](CN(C)C(=O)Nc2ccccc2)OCc2cnnn2CCCC1=O | -8.1&-1.7 | i | 1&-5 | 3&4 | -1.6&-2.7
COc1ccc(S(=O)(=O)N[C@H]2CC[C@@H](CCNC(=O)CN3CCOCC3)O[C@@H]2CO)cc1 | -1.6 | i | 0 | 0 | -0.8
C[C@@H]1CCCCO[C@H](CN(C)S(=O)(=O)c2cccs2)[C@@H](C)CN([C@H](C)CO)C(=O)c2cc(NS(=O)(=O)c3ccc(Cl)cc3)ccc2O1 | -2.5 | + | 2 | 4 | -2.2

More entries
molecule | MLL AF4-AF9 inh | FGF22 binding | Ecoli rRNA inh | Ecoli rRNA inh OD600 | Ecoli rRNA inh RFP
C[C@@H]1CN([C@H](C)CO)C(=O)c2ccccc2-c2ccccc2CO[C@H]1CN(C)C(=O)Nc1cccc(F)c1 | -2.5 | i | 1 | 9 | -3.4
CC(C)(C)c1ccc(CC(=O)N2CCC2(C)C(=O)NCc2ccc(Cl)cc2)cc1 (stereo not given) | -0.4 | i | -24 | -31 | -3.3
COc1ccccc1N(C)S(=O)(=O)c1ccc(C(=O)NCCCN2CCCC2=O)cc1 | 0.0 | i | 2 | 8 | -0.1
CCCNC(=O)N(C)C[C@H]1Oc2cc(C#CCOC)ccc2S(=O)(=O)N([C@@H](C)CO)C[C@@H]1C | -3.2 | i | -2 | 2 | 0.7
CCC(=O)N1CCC2(CC1)CN(Cc1cc(F)ccc1F)[C@@H](CO)c1c2c2ccc(OC)cc2n1C | -1.3 | i | 2 | 0 | -4.4
C[C@@H]1CN([C@H](C)CO)C(=O)c2cc(NC(=O)C3CC3)ccc2O[C@@H]1CN(C)CC1CC1 | 0.1 | i | 3 | 14 | 2.4
CCCC(=O)Nc1ccc2c(c1)C(=O)N(C)C[C@@H](OC)[C@H](C)CN(C)[C@@H](C)CO2 | -0.6 | i | 0 | 0 | -1.4
C[C@H](O)C#Cc1ccc([C@@H]2[C@H]3CN(S(=O)(=O)Cc4ccccc4)CCCCN3[C@H]2CO)cc1 | -8.9 | i | 2 | 13 | -3.4
COCC(=O)Nc1ccc2c(c1)OC[C@H](C)N(CC1CCCCC1)C[C@@H](C)[C@H](OC)CN(C)C2=O | 5.4 | i | -5 | -5 | 0.4
N#C[C@H]1[C@H](c2ccc(C3=CCCC3)cc2)[C@@H](CO)N1C(=O)NC1CCCC1 | -2.7 | i | 12 | -40 | 17
O=C(CSc1ncccn1)NC(=O)NC1CCCC1 | 3.1 | i | 7 | 20 | 0.3
Cn1cnc(S(=O)(=O)N[C@H]2C=C[C@H](CC(=O)NCC3CC3)O[C@H]2CO)c1 | 0.3 | i | 0 | 8 | -0.7
Cc1ccc(C(O)c2ncc(-c3ccccc3F)[nH]2)cc1F (stereo not given) | 0.8 | i | -2 | -21 | 0.5
c1cc(-c2ccsc2)n2cnnc2c1 | -0.7 | i | 7 | 10 | -4.1
CCC(=O)N(C)C[C@@H]1Oc2cc(C#CCN(C)C)ccc2S(=O)(=O)N([C@@H](C)CO)C[C@@H]1C | -1.0 | i | 4 | -1 | -1.6
C[C@H](NC(=O)C[C@@H]1C[C@@H]2c3cc(NS(C)(=O)=O)ccc3O[C@@H]2[C@@H](CO)O1)c1ccccc1 | 1.4 | i | 1 | 11 | -0.1
C[C@H](CO)N1C[C@H](C)[C@H](CN(C)Cc2ccc3c(c2)OCO3)Oc2c(NC(=O)C3CCCCC3)cccc2C1=O | 1.3 | i | 1 | 7 | -0.8
CO[C@H](CN(C)S(=O)(=O)c1ccccc1)[C@H](C)CN(Cc1ccccc1Cl)[C@H](C)CO | -0.1 | i | -1 | -5 | -5.6
COC(=O)[C@@H]1[C@@H](CO)[C@@H]2Cn3c(ccc(-c4cccc(OC)c4)c3=O)[C@@H]2N1CC1CC1 | -0.2 | i | -2 | -1 | 0.4
COc1ccc2c3c(n(C)c2c1)[C@H](CO)N(C(=O)C1CCCCC1)CC31CCN(C(=O)c2ccncc2)CC1 | 2.5 | i | 0 | 1 | -3.7
Cc1ccc(S(=O)(=O)N(C)C[C@H]2Oc3ccc(NC(=O)Nc4c(C)noc4C)cc3CC(=O)N([C@H](C)CO)C[C@H]2C)cc1 | -0.8 | i | 2 | 3 | -0.9
CC(C)Oc1cc(F)ccc1-c1cc(C(=O)Nc2cccc(C(F)(F)F)c2)[nH]n1 | 2.9 | i | -10 | -20 | 0.0
CCCNC(=O)c1cc(C2CCCN(C(=O)c3ccc4ccccc4c3)C2)on1 (stereo not given) | -6.2 | i | -4 | -11 | -2.6
COc1ccc(NC(=O)N(C)C[C@@H]2Oc3c(NC(=O)C4CC4)cccc3C(=O)N([C@H](C)CO)C[C@H]2C)cc1 | -2.2 | i | 1 | 7 | -1.7
COc1ccc(NC(=O)N(C)C[C@@H]2Oc3c(NC(=O)NC4CCCCC4)cccc3C(=O)N([C@@H](C)CO)C[C@@H]2C)cc1 | -3.5 | i | 0 | 1 | 0.4
Cn1c(=O)c2[nH]c(C3CC4CCC3C4)nc2n(C)c1=O (stereo not given) | 1.1 | i | -6 | -7 | 0.5
CC(=O)N[C@@H](Cc1c[nH]c2ccccc12)C(=O)OCC(=O)Nc1cc(C)on1 | 0.6 | i | 4 | 8 | -1.9
CNC(=O)C[C@H]1C(=O)N(c2ccc(Br)cc2)C[C@@H]1CSC | -1.8 | i | 9 | 4 | 1.2
NC(=O)c1nccc2ccccc12 | -4.1 | i | 15 | 22 | 2.3

Compound activity: PubChem, Broad Institute

This is a subset; rates above refer to the full screens.
